Calb FLC: C. albicans growth modulation with fluconazole. C. albicans CaCi-2 (fluconazole-resistant clinical isolate) + fluconazole, Alamar Blue growth, 48 h. growth inhibition, % (concentration not given with the values). 0.57% of 300,000 active. AID 1979;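 active = most replicates above 75%; inconclusive = exactly half above 75%; inactive = most below 75%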;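 note: all wells also contain fluconazole at 8 µg/ml as a sub-toxic cotreatment; 0% = median of DMSO wells and 100% = median of geldanamycin control wells; wells of about 8 µL received 7.5 nL stock; the first replicate is given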
LANA-H2B inh: blocks KSHV LANA binding to histone H2A/H2B | Q9QR71 | cell-free LANA-H2A/H2B peptide, fluorescence polarization | inhibition, % (concentration not given with the values) | 0.6% of 320,000 active | AID 2629; in the data active = inhibition mostly above about 10%, no sharp cut-off; inactive = mostly below about 6.7%;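 note: stock transfer was 7.5 nL into about 10 µL; 0% = median of vehicle wells and 100% = median of positive control wells; one replicate is shown; the record names a cut of 25% in any replicate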
Target sequence (Q9QR71 whole entry, looked up): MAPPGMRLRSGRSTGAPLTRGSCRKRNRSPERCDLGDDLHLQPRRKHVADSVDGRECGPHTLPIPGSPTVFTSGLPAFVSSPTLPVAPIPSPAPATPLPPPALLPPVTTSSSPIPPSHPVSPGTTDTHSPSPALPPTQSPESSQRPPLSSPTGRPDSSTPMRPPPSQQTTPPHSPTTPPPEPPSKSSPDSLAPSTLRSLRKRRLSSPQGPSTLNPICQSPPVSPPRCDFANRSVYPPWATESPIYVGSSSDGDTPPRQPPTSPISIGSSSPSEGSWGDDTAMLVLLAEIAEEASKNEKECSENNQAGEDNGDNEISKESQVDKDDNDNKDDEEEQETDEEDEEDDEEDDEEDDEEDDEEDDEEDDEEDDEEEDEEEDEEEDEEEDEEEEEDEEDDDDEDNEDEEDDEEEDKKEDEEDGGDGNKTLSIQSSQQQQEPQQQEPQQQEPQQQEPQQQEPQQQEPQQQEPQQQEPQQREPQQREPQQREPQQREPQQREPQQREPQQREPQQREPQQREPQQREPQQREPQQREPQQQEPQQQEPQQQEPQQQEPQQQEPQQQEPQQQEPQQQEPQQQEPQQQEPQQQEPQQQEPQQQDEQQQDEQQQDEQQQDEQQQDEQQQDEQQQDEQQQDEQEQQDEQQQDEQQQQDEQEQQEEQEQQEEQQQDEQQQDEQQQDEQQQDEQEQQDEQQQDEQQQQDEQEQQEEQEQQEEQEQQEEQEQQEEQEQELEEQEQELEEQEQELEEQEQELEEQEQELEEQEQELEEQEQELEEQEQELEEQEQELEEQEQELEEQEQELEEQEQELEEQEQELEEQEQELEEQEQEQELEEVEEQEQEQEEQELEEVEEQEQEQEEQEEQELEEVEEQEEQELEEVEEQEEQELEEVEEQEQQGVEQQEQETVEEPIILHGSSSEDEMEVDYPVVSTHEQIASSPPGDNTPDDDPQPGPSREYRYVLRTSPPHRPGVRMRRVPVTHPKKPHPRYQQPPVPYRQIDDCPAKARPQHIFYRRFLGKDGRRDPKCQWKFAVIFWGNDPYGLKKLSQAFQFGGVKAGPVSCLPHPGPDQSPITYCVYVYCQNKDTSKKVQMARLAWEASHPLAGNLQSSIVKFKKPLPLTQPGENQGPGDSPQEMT
Vif A3G: HIV-1 Vif–A3G interaction blockers – biochemical, TR-FRET, GST-Vif 1-94, biotin-A3G peptide, dose response retest, primary screen (AID 1117319). inhibition, %; hits with a dose series show IC50 in µM. 0.57% of 260,000 active. TR-FRET GST-Vif / biotin-A3G peptide binding; higher % means a stronger effect; test concentration not given here; strong numbers were not always called active;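 active = above the screen mean plus three standard deviations and confirmed in dose response; inconclusive = results disagree or hit not tested in dose response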;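 note: Vif residues 1-94 fused to GST binding biotinylated APOBEC3G peptide 110-148; 0% = full assay without inhibitor and 100% = GST in place of GST-Vif; retest series ran down from 100 µM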
RanGTP-Impb inh: inhibitors of RanGTP-importin-beta interaction, primary screen, biochemical, FRET, CFP-Ran, YFP-importin-beta, homogeneous | cell-free CFP-Ran/YFP-importin-beta FRET ratio | inhibition, % (no concentration beside the values) | 1.1% of 300,000 active | AID 2216;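 active = most replicates above 15%; inconclusive = exactly half above 15%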;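 note: 0% = DMSO wells and 100% = Ran loaded with GDP instead of GTP; wells of about 40 µL received 100 nL stock; the first replicate is given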
ALR H2O2 inh: human ALR oxidase inhibition via reduced H2O2 | purified ALR, DTT oxidation, H2O2 HRP-luminol luminescence | 3.8% of 290,000 active | inhibition, % (no concentration beside the values);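 active = mean and each replicate at 75% or more; inconclusive = only one of the two met; inactive = neither met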;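 note: stock transfer was 7.5 nL into about 7.5 µL; 0% = neutral wells and 100% = wells with inactivated enzyme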
B2AR ag: agonists of human beta-2 adrenergic receptor inducing internalization | P07550 | Am2.2-beta2AR cells, FAP receptor internalization, flow cytometry; reference of the scale not given here | response, % (concentration not given with the values) | 0.43% of 340,000 active | AID 504454;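 active = response above a set limit, near 3 SD of response in nonfluorescent compounds, cut at about 42% in these data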;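 note: stock transfer was 100 nL into about 11 µL; a reference agonist was the positive control; negative values mostly stem from fluorescent compounds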
HNF4A DNA FP: change in binding of human HNF4 alpha to DNA | P41235 | HNF4a-FITC DNA binding, fluorescence polarization, 1 h | activity change, % at 10 µM | 0.3% of 360,000 active; in the data active = activity change above about 30%, passing the limit was not always enough;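 note: controls were the assay level and a saturating level of protein; the project sought stronger binding though the title names inhibitors; some compounds called inactive have numbers as strong as hits; positive values seem to mean higher polarization but the record does not say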
* = called active by the depositor.

COc1ccccc1/C=C/C(=O)NCC(=O)N/N=C/c1ccccc1[N+](=O)[O-] was read as Calb FLC -1, LANA-H2B inh -10, Vif A3G inconclusive, RanGTP-Impb inh -0.3, ALR H2O2 inh -1, B2AR ag 3 and HNF4A DNA FP 0.1.
Screening COc1cc([N+](=O)[O-])c2nc(C=NNC(N)=S)ccc2c1 returned Vif A3G 0%, B2AR ag -4 and HNF4A DNA FP 0.2.
CSc1ccccc1OCc1cc(C(=O)N(C)Cc2cc(C)[nH]n2)no1 was read as Calb FLC -2, LANA-H2B inh -3.6, Vif A3G 2%, RanGTP-Impb inh -2.4, ALR H2O2 inh -23, B2AR ag -5 and HNF4A DNA FP -2.3.
Screening O=C(CSc1nc(=O)n2ccccc2n1)Nc1ccc2c(c1)OCO2 returned Calb FLC -2, LANA-H2B inh 2.5, Vif A3G 1%, RanGTP-Impb inh -0.8, ALR H2O2 inh 64, B2AR ag -10 and HNF4A DNA FP -6.3.
O=[N+]([O-])c1ccc(/C=N/n2cnc3ccccc32)s1 was read as Calb FLC inconclusive, LANA-H2B inh 0.4, RanGTP-Impb inh -13, ALR H2O2 inh -19, B2AR ag 1 and HNF4A DNA FP -1.1.
`CCOc1cc2sc(N3CCC(C(=O)NCCCN4CCCC4=O)CC3)nc2cc1Br` gave Calb FLC -8, LANA-H2B inh -7.5, Vif A3G -3%, RanGTP-Impb inh -1.4, ALR H2O2 inh -15, B2AR ag -1 and HNF4A DNA FP 2.3.
`C/C(=N\NC(=O)CSc1nc(C)[nH]c1[N+](=O)[O-])c1ccc(F)cc1` gave Calb FLC -6, LANA-H2B inh 4.0, RanGTP-Impb inh -1.2, B2AR ag 7 and HNF4A DNA FP -1.1.
`CCN1/C(=C/c2cc[n+](CCCS(=O)(=O)[O-])c3ccccc23)Sc2ccccc21` gave Calb FLC -10, LANA-H2B inh -169, RanGTP-Impb inh 2.0, ALR H2O2 inh 3, B2AR ag -168 and HNF4A DNA FP 28.
CCOc1cccc(CN2CCCC(N3CCc4cc(OC)c(OC)cc4C3)C2)c1O (stereo not given) was read as Calb FLC -1, LANA-H2B inh 3.6, Vif A3G -3%, RanGTP-Impb inh 6.7, ALR H2O2 inh 8, B2AR ag 7 and HNF4A DNA FP 0.5.
Screening CCOc1cc2c(cc1OCC)C(c1ccccc1)N(c1ccc(C(=O)O)cc1)C(=O)C2 (stereo not given) returned Calb FLC 0, LANA-H2B inh -0.2, Vif A3G 4%, RanGTP-Impb inh 0.1, ALR H2O2 inh -2, B2AR ag -6 and HNF4A DNA FP -1.4.
`COc1ccccc1OCCOc1ccccc1/C=N/n1cnnc1` gave Calb FLC 1, LANA-H2B inh 2.3, Vif A3G 77%, RanGTP-Impb inh 0.6, ALR H2O2 inh -7, B2AR ag -1 and HNF4A DNA FP 1.1.
Screening CCCCCCCCCCCCOC1OC(CO)C(O)C(O)C1NC(C)=O (stereo not given) returned Calb FLC 12, LANA-H2B inh -4.8, RanGTP-Impb inh -2.3, ALR H2O2 inh 0, B2AR ag 27 and HNF4A DNA FP -0.4.
CNc1snc(C)c1C(=O)OCC(=O)Nc1ccc(C)cc1F was read as Vif A3G -1%, B2AR ag 0 and HNF4A DNA FP 1.8.
For COc1cccc(-c2csc(N3CCN(C(=S)Nc4ccccc4)CC3)n2)c1 the results were Calb FLC -9, LANA-H2B inh -1.3, Vif A3G 1%, RanGTP-Impb inh inconclusive, ALR H2O2 inh -2, B2AR ag 3 and HNF4A DNA FP 0.6.
N#Cc1cnc(SCC(=O)Nc2ccccc2C(F)(F)F)nc1N was read as Calb FLC 45, LANA-H2B inh -1.1, Vif A3G 8%, RanGTP-Impb inh 1.1, ALR H2O2 inh 1, B2AR ag 11 and HNF4A DNA FP 2.7.
`CC(C)[C@H](NC(=O)C1CCN(S(=O)(=O)c2ccc(F)cc2)CC1)C(=O)NCc1ccco1` gave Calb FLC -6, LANA-H2B inh 4.3, Vif A3G 2%, RanGTP-Impb inh 0.3, ALR H2O2 inh 2, B2AR ag -2 and HNF4A DNA FP -1.4.
Screening O=C(c1cc2ccccc2cc1O)N1CCCC1 returned Calb FLC -3, LANA-H2B inh -2.2, Vif A3G 2%, RanGTP-Impb inh -3.4, ALR H2O2 inh 37, B2AR ag -5 and HNF4A DNA FP -2.3.
`COc1ccc(NC(=O)Nc2c(C)n(C)n(-c3ccccc3)c2=O)c(OC)c1` gave Calb FLC -4, LANA-H2B inh 3.8, Vif A3G 0%, RanGTP-Impb inh inconclusive, ALR H2O2 inh 12, B2AR ag 0 and HNF4A DNA FP -0.2.
O=C(CNC(=O)c1cccs1)OCC(=O)c1ccc2ccccc2c1 was read as Calb FLC inconclusive, LANA-H2B inh -0.9, Vif A3G >100µM*, RanGTP-Impb inh inconclusive, ALR H2O2 inh 5, B2AR ag 11 and HNF4A DNA FP 1.0.
Screening CC(/C=C/c1ccccc1)=N/NC(=O)c1cc([N+](=O)[O-])cc([N+](=O)[O-])c1 returned LANA-H2B inh 2.8, Vif A3G 5%, B2AR ag 11 and HNF4A DNA FP 2.5.
For CC(=O)Oc1c(C)c(C)c2c(c1C)CCC(C)(CCCC(C)CCCC(C)CCCC(C)C)O2 (stereo not given) the results were LANA-H2B inh 3.3, ALR H2O2 inh -11, B2AR ag -2 and HNF4A DNA FP -1.5.
Screening CC(=O)Nc1ccc(S(=O)(=O)/N=C2\SCCN2S(=O)(=O)c2ccc(NC(C)=O)cc2)cc1 returned Calb FLC 24, LANA-H2B inh -0.3, Vif A3G -1%, RanGTP-Impb inh -2.5, ALR H2O2 inh -55, B2AR ag -11 and HNF4A DNA FP -0.4.
Screening Cc1nn(C)c(C(=O)Nc2ccc(Cn3cccn3)cc2)c1[N+](=O)[O-] returned Calb FLC -11, LANA-H2B inh 0.9, Vif A3G -6%, RanGTP-Impb inh 5.1, ALR H2O2 inh -3, B2AR ag 7 and HNF4A DNA FP -2.2.
For Cc1cc(C)c(S(=O)(=O)Nc2ccnc(-c3cccnc3)n2)c(C)c1 the results were Calb FLC -8, LANA-H2B inh 0.6, Vif A3G -1%, RanGTP-Impb inh 1.1, ALR H2O2 inh 5, B2AR ag -4 and HNF4A DNA FP -2.9.
For N=c1c2c(-c3ccccc3)c(-c3ccccc3)n(Cc3ccco3)c2ncn1CCCn1ccnc1 the results were Calb FLC 21, LANA-H2B inh 2.4, Vif A3G 26%, RanGTP-Impb inh 2.9, B2AR ag 18 and HNF4A DNA FP 4.6.
Screening COc1c2ccoc2cc2oc(C)cc(=O)c12 returned Calb FLC -9, LANA-H2B inh 11, RanGTP-Impb inh 1.2, ALR H2O2 inh -9, B2AR ag 4 and HNF4A DNA FP 1.7.
For O=C1CC(/C=C/c2cccnc2)=Nc2ccccc2N1 the results were Calb FLC 38, LANA-H2B inh -1.2, Vif A3G 1%, RanGTP-Impb inh 0.2, ALR H2O2 inh 0, B2AR ag -14 and HNF4A DNA FP -0.9.
For COc1ccc(CN2CCNC(=O)C2CC(=O)N(C)Cc2ccon2)c(OC)c1 (stereo not given) the results were Calb FLC -32, LANA-H2B inh 6.6, Vif A3G 12%, RanGTP-Impb inh -3.7, ALR H2O2 inh -20, B2AR ag -1 and HNF4A DNA FP -1.9.
For O=c1[nH]c2ccc(S(=O)(=O)N3CCCCC3)cc2[nH]1 the results were Calb FLC -30, LANA-H2B inh 0.9, Vif A3G -2%, RanGTP-Impb inh -1.9, ALR H2O2 inh -4, B2AR ag -4 and HNF4A DNA FP -0.6.
Screening COc1ccc(-c2nnnn2CCc2ccccc2)cc1 returned Calb FLC 23, LANA-H2B inh -2.4, Vif A3G -1%, RanGTP-Impb inh 3.3, ALR H2O2 inh -1, B2AR ag 1 and HNF4A DNA FP -2.4.
For COc1ccccc1NC(=O)c1ccc(-c2ccccc2[N+](=O)[O-])o1 the results were Calb FLC -1, LANA-H2B inh 4.4, Vif A3G 1%, RanGTP-Impb inh 0.7, ALR H2O2 inh -48, B2AR ag -4 and HNF4A DNA FP 0.5.
Cc1cc(=O)oc2cc(NC(=O)CCCC(=O)O)ccc12 was read as Calb FLC 1, LANA-H2B inh -3.8, Vif A3G 0%, RanGTP-Impb inh inconclusive, ALR H2O2 inh -12, B2AR ag 2 and HNF4A DNA FP -0.7.
Screening Cc1ccc(N=C2NC(=O)/C(=C\c3cccs3)S2)cc1C returned Calb FLC -6, LANA-H2B inh 0.2, RanGTP-Impb inh 4.5, ALR H2O2 inh 0, B2AR ag 5 and HNF4A DNA FP 1.1.
`O=C(Cn1cnc2c(OCc3ccccc3)ncnc21)NCCCn1ccnc1` gave LANA-H2B inh inactive, Vif A3G -1%, ALR H2O2 inh -2, B2AR ag -2 and HNF4A DNA FP 3.0.
For CC(=O)Nc1ccc(S(=O)(=O)N2CCN(C(=O)c3cccnc3)CC2)cc1 the results were Calb FLC 45, LANA-H2B inh 1.8, Vif A3G 4%, RanGTP-Impb inh 1.7, ALR H2O2 inh -1, B2AR ag -2 and HNF4A DNA FP 4.1.
`O=C(O)CCn1cc(/C=C/C(=O)c2ccc(Cl)cc2)c(-c2ccc(Br)cc2)n1` gave LANA-H2B inh -221, Vif A3G 8%, ALR H2O2 inh 98*, B2AR ag -3 and HNF4A DNA FP -2.3.
For CCNC(=S)N(CCc1c(C)[nH]c2ccc(Cl)cc12)Cc1ccco1 the results were Calb FLC 19, LANA-H2B inh 0.5, Vif A3G 23%, RanGTP-Impb inh 2.8, ALR H2O2 inh 31, B2AR ag 20 and HNF4A DNA FP 0.3.
CC(=O)NC(=S)Nc1ccc2oc(-c3cc(F)c(F)cc3Cl)nc2c1 was read as Calb FLC 1, LANA-H2B inh -4.6, Vif A3G 1%, RanGTP-Impb inh -0.5, ALR H2O2 inh -5, B2AR ag -11 and HNF4A DNA FP -1.0.
For Cc1ccccc1N1C(=O)CC(N2CCC(C(N)=O)CC2)C1=O (stereo not given) the results were Calb FLC 7, LANA-H2B inh 0.9, Vif A3G 32%, RanGTP-Impb inh 4.1, ALR H2O2 inh -3, B2AR ag 8 and HNF4A DNA FP 1.6.
CC(C)(C)n1ncc2c(=O)n(CC(=O)N3CCCCC3)cnc21 was read as Calb FLC 5, Vif A3G 5%, RanGTP-Impb inh 3.6, ALR H2O2 inh -2, B2AR ag 13 and HNF4A DNA FP -1.6.
`Cc1cccc(NC(=S)NCC(c2ccccc2)N(C)C)c1` (stereo not given) gave Calb FLC -19, LANA-H2B inh -2.9, Vif A3G -8%, RanGTP-Impb inh 0.0, ALR H2O2 inh 0, B2AR ag -3 and HNF4A DNA FP -0.3.
CC(=O)c1nn(-c2cccc(Br)c2)cc1C(=O)c1cccc2ccccc12 was read as Calb FLC -5, LANA-H2B inh -0.9, Vif A3G 14%, RanGTP-Impb inh -1.8, ALR H2O2 inh -3, B2AR ag -6 and HNF4A DNA FP -1.7.
`COCCCn1c(=S)[nH]c(C)c(C)c1=O` gave Calb FLC 2, LANA-H2B inh -1.5, RanGTP-Impb inh -0.4, ALR H2O2 inh 28, B2AR ag -2 and HNF4A DNA FP 0.8.
For COc1ccc(NC(=O)CCCSc2nc(-c3ccco3)cc(C(F)(F)F)n2)cc1OC the results were Calb FLC 0, LANA-H2B inh 3.1, Vif A3G -10%, RanGTP-Impb inh inconclusive, ALR H2O2 inh -6, B2AR ag 12 and HNF4A DNA FP -0.6.

Compounds from the list above that have a CF3 group (two):
N#Cc1cnc(SCC(=O)Nc2ccccc2C(F)(F)F)nc1N was read as Calb FLC 45, LANA-H2B inh -1.1, Vif A3G 8%, RanGTP-Impb inh 1.1, ALR H2O2 inh 1, B2AR ag 11 and HNF4A DNA FP 2.7.
For COc1ccc(NC(=O)CCCSc2nc(-c3ccco3)cc(C(F)(F)F)n2)cc1OC the results were Calb FLC 0, LANA-H2B inh 3.1, Vif A3G -10%, RanGTP-Impb inh inconclusive, ALR H2O2 inh -6, B2AR ag 12 and HNF4A DNA FP -0.6.
